# HSD17B inh = qHTS Assay for Inhibitors of HSD17B4, hydroxysteroid (17-beta) dehydrogenase 4; AID 893, 2007; recombinant HSD17B10, NADH fluorescence kinetic; many of its hits are not listed in these tables; Potency, µM (titrated, usually from 57.1 µM), for inactives: at the top dose activity change, negative = inhibition, most hits filed as inhibitors; 3-hydroxyacyl-CoA dehydrogenase type-2 (Homo sapiens), Q99714; 7.6% of 75,000 active; active = well fitted inhibition curve with a large enough effect; inconclusive = small, poorly fitted or top-dose-only effect; inactive = no such curve, though single readings can be large or run the other way;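 note: the protocol describes HADH2 (HSD17B10) and not the HSD17B4 of the title; nearly all actives have a fitted effect of over 70% in size; most hits overshoot -100% by far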
#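 His-tagged E. coli-expressed HADH2 at 20 nM in 100 mM Tris-HCl pH 9.0 with 0.01 % Tween-20, preincubated 15 min with compound at room temperature. Reaction with 1 mM NAD+ and 90 uM beta-hydroxybutyryl coenzyme A; NADH fluorescence (360/450 nm) read kinetically over 4 min, last minus first point.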
# The depositor's hits bear a star; i = inactive; ? = inconclusive; [ ] = remark or other dose. % is set by controls: 0 for no effect and ±100 for the full control effect; potency is the fitted concentration of half-maximal effect. This is a subset, so the mix of outcomes need not match the whole.
compound | HSD17B inh
O=C(O)CC1CCC(=C(Cl)Cl)C1 (stereo unspecified) | 4%
COc1ccc(CCC(=O)NCCc2cn3c(C)csc3n2)cc1 | 5%
Cc1nc2c(-c3ccccc3)c(C)nn2c(C)c1CC(=O)O | 7%
O=C1c2ccccc2C(=O)N1CCSc1nncs1 | -6%
COC(=O)c1oc2ccc(Br)cc2c1NC(=O)CN1CCN(C)CC1 | 3%
CCN1CCN(c2ncnc3c2oc2nc(C)c4c(c23)CC(C)(C)OC4)CC1 | 18%
COc1ccc(CCNC(=O)C2CCN(S(C)(=O)=O)CC2)cc1OC | 6%
COc1ccc(NC(=O)C2CC(=O)N(c3cccc(C)c3C)C2)cc1 (stereo unspecified) | -2%
COc1ccc(OCC(O)Cn2c(Br)nc3c2c(=O)[nH]c(=O)n3C)cc1 (stereo unspecified) | -2%
COC(=O)c1sc(NC(=O)c2ccoc2C)nc1C | ?
CC(C)(Oc1ccc(-c2cccc3ccccc23)cc1)C(=O)O | 2%[11.4 µM]
CN(C)c1ccc(P(=O)(OCc2ccccc2)C(O)c2cccnc2)cc1 (stereo unspecified) | -2%
Cc1ccc(C)n1NC(=O)c1ccccc1Cl | -1%
COc1ccc(-n2c(Cc3cc(=O)[nH]c(=O)[nH]3)nnc2SCc2ccccc2)cc1 | 2%
Cc1nnc(NC(=O)Nc2cccc(Cl)c2)s1 | -2%
Cc1nn(C(=O)c2cccnc2)c(C)c1C | 7%
COC(=O)c1cn(C(=O)OC)c2ccccc12 | -5%
CCCCn1c(=O)c(C(=O)OCC)c(O)c2ccccc21 | -4%
O=C(NCc1ccccc1Cl)C1CCCN(S(=O)(=O)c2cnc[nH]2)C1 (stereo unspecified) | 5%
O=C(O)c1ccc(NS(=O)(=O)c2cc(C(=O)O)ccc2Br)cc1 | -2%

# Of the compounds above, 3 contain a furan ring, fused or not:
compound | HSD17B inh
COC(=O)c1oc2ccc(Br)cc2c1NC(=O)CN1CCN(C)CC1 | 3%
CCN1CCN(c2ncnc3c2oc2nc(C)c4c(c23)CC(C)(C)OC4)CC1 | 18%
COC(=O)c1sc(NC(=O)c2ccoc2C)nc1C | ?

# Additional structures:
compound | HSD17B inh
CCOC(=O)CSc1n[nH]c(-c2ccco2)n1 | 4%
Cc1onc(-c2c(F)cccc2Cl)c1C(=O)Nc1nnc(C2CC2)s1 | -7%
CCN(CC)S(=O)(=O)c1ccccc1/C=N\O | 1%
COCCn1c(=O)[nH]c2cc(C(=O)NCC3CCCO3)ccc2c1=O (stereo unspecified) | 32µM*
Cc1ccccc1-c1nc(-n2ccnc2)c2ccccc2n1 | -13%
CCCCOc1ccc(CN2CCC(O)CC2)cc1 | -4%
O=C(CN1C(=O)COc2ccccc21)N1CCN(c2ccccc2F)CC1 | 4%
CC1(C)CC[C@]2(C(=O)O)CC[C@@]3(C)C(=CCC4[C@@]5(C)CCC(O)[C@@](C)(CO)C5CC[C@@]43C)C2C1 (stereo partly specified) | 8%
O=C(CN1CCOc2ccccc21)NCc1ccco1 | 3%
CC(C)n1c(SCC(=O)Nc2ccccc2N2CCCCC2)nc2c1c(=O)n(C)c(=O)n2C | -2%
Cc1cc(C)n(Cc2ccccc2Cl)n1 | 6%
O=C(Nc1cccnc1)c1cccc(S(=O)(=O)N2CCOCC2)c1 | 13%
Cc1cc(NC(=O)CSc2ccc3c(c2)OCCO3)no1 | 6%
CCOc1nc(C)ccc1-c1noc(-c2ccncc2)n1 | 0%
O=C1C=CCCC1 | -3%
CCOc1ccc(C2CC(c3ccc(Br)cc3)Nc3nc(N)nn32)cc1 (stereo unspecified) | ?
CCOc1ccc(NC(=O)N2CC=C(n3c(=O)[nH]c4ccccc43)CC2)cc1 | -11%
COCCn1c(C(=O)N(C)C)cc2c1C[C@H]1CN(C(=O)c3ccccc3)[C@@](Cc3ccc(F)cc3)(C(=O)OC)[C@@H]21 | 9%
CCC(Sc1nc(=O)cc(N)n1-c1ccccc1)C(=O)Nc1cc(C)on1 (stereo unspecified) | 4%
COCCNC(=O)CN1C(=O)COc2ccc(Cl)cc21 | 0%
O=C(Cc1cccs1)NCc1cccs1 | -2%
COc1ccccc1CN1CCC2(CC1)CCN(C(=O)c1csnn1)CC2 | 6%
CCn1c(COc2ccccc2C)nnc1SCC(=O)CC(=O)Nc1ccccc1 | -14%
OCCN1CCN(c2ncnc3ccc(Br)cc23)CC1 | -9%
CC1=C(C(=O)OCc2ccccc2)C(c2ccc(C3CCCCC3)cc2)NC(=O)N1CCCCCC(=O)O (stereo unspecified) | ?
COC(=O)c1ccccc1NC(=O)N1CCN(C/C=C/c2ccccc2)CC1 | 2%
COc1ccc(C2(O)CCN(CCCCOc3ccccc3)CC2)cc1 | -15%
COc1ccc(C2CC(O)(C(C)(C)O)NO2)cc1 (stereo unspecified) | -1%
COc1ccc(NC(=O)C2(N(CC(C)C)C(=O)Cn3nnnc3N)CCCCC2)cc1 | -1%
CCOC(=O)CCCOC(=O)c1ccc(S(=O)(=O)N(C)C)cc1 | 8%

# Looked up above.
# COc1ccc(NC(=O)C2(N(CC(C)C)C(=O)Cn3nnnc3N)CCCCC2)cc1 | HSD17B inh = -1%
# O=C(Cc1cccs1)NCc1cccs1 | HSD17B inh = -2%
# COC(=O)c1ccccc1NC(=O)N1CCN(C/C=C/c2ccccc2)CC1 | HSD17B inh = 2%

# Next compounds
compound | HSD17B inh
N#CCSc1nc2c(c(C3CC=CCC3)c1C#N)CCC2 (stereo unspecified) | 3%
CCOC(=O)N1CCN(C(=O)c2cn(C)c3ccc(S(=O)(=O)N4CCCC4)cc3c2=O)CC1 | -11%
O=C(Nc1ccc2c(c1)OCO2)C1CCCN(S(=O)(=O)c2cccs2)C1 (stereo unspecified) | 2%
COC(=O)c1ccc(NC(=O)CSc2nnc(C)n2-c2ccccc2)cc1 | -5%
CCN1C(=O)CS/C1=C(\C#N)S(=O)(=O)c1ccccc1 | 5%
FC(F)(F)c1ccc(N2CCOCC2)c(Nc2nc3ccccc3n3cnnc23)c1 | i
CCCOc1ccc(/C(O)=C2/C(=O)C(=O)N(CCN(CC)CC)C2c2ccncc2)cc1 (stereo unspecified) | 11%
COc1cccc(C(=O)Nc2ccc(C)cc2)c1 | 10%
CC1(C)CC(=O)C=C(NCCc2ccc(S(N)(=O)=O)cc2)C1 | 7%
COc1ccc(C(C)=O)c2c1OCCO2 | ?

# In the list so far, six have a COOH group:
compound | HSD17B inh
O=C(O)CC1CCC(=C(Cl)Cl)C1 (stereo unspecified) | 4%
Cc1nc2c(-c3ccccc3)c(C)nn2c(C)c1CC(=O)O | 7%
CC(C)(Oc1ccc(-c2cccc3ccccc23)cc1)C(=O)O | 2%[11.4 µM]
O=C(O)c1ccc(NS(=O)(=O)c2cc(C(=O)O)ccc2Br)cc1 | -2%
CC1(C)CC[C@]2(C(=O)O)CC[C@@]3(C)C(=CCC4[C@@]5(C)CCC(O)[C@@](C)(CO)C5CC[C@@]43C)C2C1 (stereo partly specified) | 8%
CC1=C(C(=O)OCc2ccccc2)C(c2ccc(C3CCCCC3)cc2)NC(=O)N1CCCCCC(=O)O (stereo unspecified) | ?

# Going on with the list.
compound | HSD17B inh
Cc1cccc(N/C(N)=N/c2nc3c(c(=O)[nH]2)CCCC3)c1 | 5%
Cc1nnc(SCc2cc(=O)[nH]c(N3CCCCC3)n2)s1 | 9%
Cc1cc(C)c(-c2cc([C@H](C)O/N=C\[C@@H](C)[C@H](OCc3ccccc3)C(C)C)on2)c(C)c1 | 5%[11.4 µM]
COc1ccc(C(c2nnnn2CCc2ccccc2)N2CCN(C3CCCC3)CC2)cc1 (stereo unspecified) | -3%
COc1ccc(C2C(C#N)=C(N)OC3=C2C(=O)CC(C)(C)C3)c(OC)c1OC (stereo unspecified) | 7%
Cn1c(N2CCN(C(=O)NCc3ccccc3)CC2)nc2ccccc21 | -1%
Nc1nc2c(c(=O)[nH]1)N=C(CNc1ccc(C(=O)NC(CCC(=O)O)C(=O)O)cc1)CN2 (stereo unspecified) | 32µM*
COc1ccc(-n2c(SCC(=O)Nc3ccc(C(=O)O)cc3)nnc2-c2cccs2)cc1 | ?
O=C(NS(=O)(=O)c1ccccc1Cl)c1ccc[nH]1 | -14%
CCOC(=O)C1CCN(C(=O)c2oc3ccc(S(=O)(=O)N4CCCCCC4)cc3c2C)CC1 | -7%
Cc1c(-c2ccc(F)cc2)nc(N)c(C#N)c1-c1ccco1 | 25µM*
Cc1ccc(S(=O)(=O)NC(C(=O)OCC(=O)NC2CCS(=O)(=O)C2)C(C)C)cc1 (stereo unspecified) | 10%
Cc1c(NC(=O)c2cc(-c3ccccc3)on2)c(=O)n(-c2ccccc2)n1C | -16%
Cc1cc(OC(=O)c2c(C)cc(O)cc2O)cc(O)c1C(=O)O | ?
O=C(CC1NC2CCCCC2NC1=O)Nc1cccc(C(F)(F)F)c1 (stereo unspecified) | 11%
CCOc1ccc(C2CC(c3ccc(OC)c(OC)c3)n3nc(N)nc3N2)cc1 (stereo unspecified) | 3%
O=C(CCCN1C(=O)CSc2ncccc21)N1CCN(Cc2ccccc2)CC1 | 6%
CC(=O)N1CC2(C)CN(C(C)=O)CC(C)(C1)C2=O | 0%
Cc1c(O)c(O)cc2c1oc1c3ccccc3oc(=O)c21 | 7.9µM*
COc1cccc(-c2nnc(SCC(=O)Nc3ccc(OC)c(OC)c3)n2N)c1 | -27%
CCc1cc2c(=O)c(Oc3ccccc3)c(C)oc2cc1O | 32µM*
C=CCOC(=O)C(C(C)=O)C(NC(=O)OC)c1ccccc1 (stereo unspecified) | 11%[11.4 µM]
O=C(CSc1nc2ccccc2o1)N1CCN(c2ccccc2)CC1 | 9%
O=CN[C@@H](Cc1cnc[nH]1)C(=O)O | -1%[11.4 µM]
CC1CCN(C(=O)CSc2nnc(CN3CCOCC3)n2-c2ccccc2)CC1 | 0%
CCSC1=C(C#N)C2(CCCC2)C(C#N)=C(N)N1 | -8%
COC(=O)c1ccccc1NC(=O)c1ccc2c(c1)C(=O)N(Cc1ccco1)C2=O | ?
O=C(c1ccncc1)N1CCC[C@@]2(CCN(c3ccncc3)C2)C1 | 6%
Cc1ccc2c(c1)N(CCCC(=O)NCc1cccnc1)C(=O)CO2 | -1%
CC(=O)C1=C(C)Nc2cc(C(F)(F)F)ccc2S1 | -1%
Cc1cc(=O)oc2cc(OCC(=O)OCC(=O)NCc3ccc4c(c3)OCO4)ccc12 | ?
c1ccc(CN2CCN(c3ncnc4nc[nH]c34)CC2)cc1 | -11%
CCOC(=O)c1cn(CC)c2ccc(Br)cc2c1=O | 8%
O=C(NCCOc1ccc(Cl)cc1)C1CC(=O)N(c2ccc(F)cc2)C1 (stereo unspecified) | -7%
Cn1cccc1C(=O)Nc1nccs1 | 1%
Cc1ccc2c(nc3s/c(=C/c4cccs4)c(=O)n32)c1C | -13%
O=C(CN(Cc1ccco1)C(=O)CNS(=O)(=O)c1ccccc1)NCc1ccc(F)cc1 | -28%
Cn1c(=O)c2[nH]c(COCc3nc4c([nH]3)c(=O)n(C)c(=O)n4C)nc2n(C)c1=O | -3%[11.4 µM]
COC(=O)C1=C(N)Oc2cc(C)n(C)c(=O)c2C1c1ccc(Cl)cc1 (stereo unspecified) | 3%
O=C(COc1cc(=O)n2c(n1)SCCC2)c1ccccc1 | -1%
CCCCn1c(=O)c2ccccc2c2ccccc2c1=O | -10%
CCOC(=O)COc1ccc(S(=O)(=O)N2CCc3ccccc3C2)cc1 | 1%
Cc1noc(C)c1S(=O)(=O)Nc1ccc(C(=O)NCCc2ccccc2)cc1 | -5%
CCC(c1nnnn1Cc1ccco1)N(Cc1cc2cc(OC)ccc2[nH]c1=O)C1CCCCC1 (stereo unspecified) | ?
Cn1c(=O)c(C(=O)CN2CCCc3ccccc32)c(N)n(Cc2ccccc2)c1=O | -4%
Cc1ccccc1Cn1nc(C)c(NC(=O)c2noc3c2CCc2ccccc2-3)c1C | -1%
CSc1ccc2nnc(-c3cccc(F)c3)n2n1 | ?
Cc1ccccc1Cn1cc(NC(=O)c2noc3c2CC(C(C)(C)C)CC3)cn1 (stereo unspecified) | 2%
C#CCCCO/N=C1/[C@H]2O[C@@H]2[C@@H](O)[C@H]2[C@H]1CCn1c(=O)n(C)c(=O)n12 | 4%[11.4 µM]
O=C(c1ccc2c(c1)OCO2)[C@@H]1[C@@H]2C(=O)N(C3CCCCC3)C(=O)[C@@H]2C2c3ccccc3C=CN21 (stereo partly specified) | ?

# The list continues:
compound | HSD17B inh
CCNC(=O)CC1SC(=Nc2cccc(Cl)c2C)N(C)C1=O (stereo unspecified) | 3%
CC(C)(CNS(=O)(=O)c1ccc(F)cc1)CNS(=O)(=O)c1ccc(F)cc1 | 2%
O=C(NC1CCCCC1)c1ccc(Cc2nc3ccccc3[nH]2)cc1 | 10%
CC(C)(C)S(=O)(=O)c1ccc2nc3c(n2c1)CCCC3 | 32µM*
COC(=O)c1ccccc1NC(=O)c1cc(-c2cccs2)on1 | ?
CCOC(=O)COc1ccc(S(=O)(=O)Nc2ccc3c(c2)OCCO3)cc1 | -2%
COc1ccc(-c2nnc3c4ccccc4c(C)nn23)cc1S(=O)(=O)N1CCN(CCO)CC1 | ?
CCOC(=O)C1=C(C)NC(=O)NC1/C=C/c1ccccc1 (stereo unspecified) | -1%
O=C(CSc1ccc2nnc(-c3cccc(F)c3)n2n1)NCc1ccco1 | -15%
N#Cc1c2n(c3c(=O)n(Cc4ccccc4Cl)cnc13)CCCCC2 | 6%
CCc1nc(NCCCn2ccnc2)c2oc3ccccc3c2n1 | ?
CCOc1ccccc1Nc1nc(N)nc(CN(C)C2CCCCC2)n1 | -12%
